PINK1 expr mod: A Quantitative High throughput Screen to Identify Chemical Modulators of PINK1 Expression; Potency, µM (titrated, usually from 76.6 µM), for the others: at the highest dose activation (PINK1 increase), hits mostly activators; PINK1 immunofluorescence, high-content cytometry, 24 h; 410,000 tested, 0.2% active; active = well fitted activation curve with a large enough effect; inconclusive = small, poorly fitted or top-dose-only effect; inactive = flat fitted curve, though single readings scatter; cell line not stated here;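 also: potency is read from the fitted curve at half-maximal effect; % of control where 0% means no effect; nearly all actives have a fitted effect of over 65% in size; a mitochondrial uncoupler was the plate control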
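Stable cell line, 250 cells/well, 12 h attachment; compounds pinned at 5 concentrations, 24 h; CCCP control. Fixed with nuclear dye, primary antibodies 12 h at 10 degrees C, secondary plus cell stain; laser-scanning cytometer read.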
Six1-Eya2 inh: qHTS Assay for Inhibitors of the Six1/Eya2 Interaction | Homeobox protein SIX1 (Homo sapiens) + Protein phosphatase EYA2 (Homo sapiens), … | AlphaScreen GST-Six1/His-Eya2 binding, biochemical; hits give low values; control for the full effect not named in the record | activity change, % (no concentration beside the values) | 360,000 tested, 0.56% active | AID 651725, 2012; in the data active = activity change below about -65%; inconclusive = about -30% to -65%; inactive = above about -30%; also: % is scaled to controls: 0 for no effect and ±100 for the full control effect; compound concentration not given in the record
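AlphaScreen with GST-Six1 and His-Eya2 (5X mix: 250 nM and 500 nM), glutathione donor and nickel acceptor beads; buffer 50 mM Tris pH 8.0, 300 mM NaCl, 1 mM TCEP; 1 h at 37 C in the dark.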
D2 PAM: Beta-Arrestin HTS for Positive Allosteric Modulators of the Human D2 Dopamine Receptor: Potentiators; D(2) dopamine receptor (Homo sapiens), P14416; DiscoveRx D2 beta-arrestin cells, luminescence, 90 min; 100% = 57 uM dopamine signal; potentiation, % (no concentration beside the values); 360,000 tested, 0.23% active; active = potentiation of 50% or more; inconclusive = 30% to 50%; inactive = 30% or less;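 also: compound concentration not given in the record; tested on top of an EC20 dose of dopamine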
Target sequence (P14416 whole entry, looked up): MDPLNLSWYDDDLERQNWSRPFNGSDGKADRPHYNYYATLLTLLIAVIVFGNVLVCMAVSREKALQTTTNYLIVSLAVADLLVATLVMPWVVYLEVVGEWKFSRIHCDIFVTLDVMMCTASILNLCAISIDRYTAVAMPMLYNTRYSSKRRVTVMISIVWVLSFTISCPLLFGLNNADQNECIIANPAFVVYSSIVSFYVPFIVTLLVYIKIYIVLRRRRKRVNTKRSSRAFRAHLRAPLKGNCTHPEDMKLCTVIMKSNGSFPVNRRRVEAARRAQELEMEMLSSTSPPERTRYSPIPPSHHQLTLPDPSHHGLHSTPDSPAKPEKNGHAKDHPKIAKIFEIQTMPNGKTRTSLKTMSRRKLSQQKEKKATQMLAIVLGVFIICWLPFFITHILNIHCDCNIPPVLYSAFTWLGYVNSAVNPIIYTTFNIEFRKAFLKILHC
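PathHunter D2 cells, attached overnight at 37 deg C, received compound in DMSO plus dopamine at EC20 (50 nM final) for 90 min at 37 deg C. Beta-arrestin recruitment was read as luminescence after 1 h with detection reagent at ambient temperature.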
D2 agonist: Beta-Arrestin HTS for Positive Allosteric Modulators of the Human D2 Dopamine Receptor: Agonists | activation, % (test concentration not listed) | DiscoveRx PathHunter D2 beta-arrestin, luminescence, 90 min; 100% = 57 uM dopamine signal | 360,000 tested, 0.084% active | AID 624465, 2012; in the data active = activation above about 40%; inconclusive = about 15% to 40%; inactive = below about 15%; also: compound concentration not given in the record; the text of the record calls up to 30% inactive
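Agonist mode: compounds alone added to overnight-plated D2 PathHunter cells for 90 min at 37 C, with 57 uM final dopamine (EC100) defining full response. Beta-arrestin recruitment detected by chemiluminescent reagent, read after 1 h at ambient temperature.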
TRPML1 ag: qHTS for Agonists of the Human Mucolipin Transient Receptor Potential 1 (TRPML1) | activation, % (concentration not given with the values) | Mucolipin-1 (Homo sapiens), Q9GZU1 | TRPML1-expressing cells, Ca2+ dye fluorescence, FDSS; host cell line not named in the record; reference of the full effect not given here | 410,000 tested, 0.12% active; in the data active = activation above about 50%; inconclusive = about 30% to 50%; inactive = below about 30%; also: 0% is about no effect; the text of the record puts the active cut at 80%
Target sequence (Q9GZU1 whole entry, looked up): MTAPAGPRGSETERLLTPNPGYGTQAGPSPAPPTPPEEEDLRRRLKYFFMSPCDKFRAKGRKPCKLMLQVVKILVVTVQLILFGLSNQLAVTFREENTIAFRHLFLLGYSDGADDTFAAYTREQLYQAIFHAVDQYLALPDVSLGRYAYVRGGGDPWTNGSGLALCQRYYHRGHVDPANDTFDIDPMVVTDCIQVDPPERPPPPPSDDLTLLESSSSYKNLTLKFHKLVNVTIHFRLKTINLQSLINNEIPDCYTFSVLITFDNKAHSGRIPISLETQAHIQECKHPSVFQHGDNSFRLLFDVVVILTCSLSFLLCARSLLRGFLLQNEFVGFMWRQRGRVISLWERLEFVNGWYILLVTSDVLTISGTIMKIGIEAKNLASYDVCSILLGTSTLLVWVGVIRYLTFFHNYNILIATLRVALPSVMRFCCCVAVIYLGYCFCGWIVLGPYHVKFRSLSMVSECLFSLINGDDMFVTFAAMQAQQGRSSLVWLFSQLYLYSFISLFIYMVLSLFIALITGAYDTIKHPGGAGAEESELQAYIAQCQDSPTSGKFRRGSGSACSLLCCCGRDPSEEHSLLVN
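Tet-induced TRPML1-DL cells, 1,500 per well, cultured overnight, were loaded with a no-wash Ca2+ dye for 45–90 min. Calcium fluorescence was recorded on the FDSS for 110 s after compound addition, before the EC80 agonist (4 uM 54-4) was added.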
TRPML1 blocker: qHTS for Inhibitors of the Human Mucolipin Transient Receptor Potential 1 (TRPML1); activity change, negative = inhibition, % (concentration not given with the values); Mucolipin-1 (Homo sapiens), Q9GZU1; TRPML1-inducible cells, Ca2+ dye fluorescence, FDSS; hits give low values; inhibition of EC80 agonist-evoked calcium signal; AID 624415, 2012; 390,000 tested, 0.02% active; in the data active means activity change below about -50%; inconclusive means about -30% to -50%; inactive means above about -30%;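 also: stimulus is agonist 54-4 at its EC80 concentration; % is scaled to controls: 0 for no effect and ±100 for the full control effect; compound concentration not given in the record; the text of the record puts the active cut at -80%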
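Tet-induced TRPML1-DL cells loaded with Ca8 no-wash calcium dye were read kinetically on FDSS. Compound addition was followed by EC80 agonist 54-4 (4 uM final); inhibition was read over 110 s.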
Starred values were filed as active, the others as inactive; ? = inconclusive; / = no result given; [ ] = dose if it differs, or a comment. Not a hit list, and some 1% of all compounds hit somewhere here.

SMILES	PINK1 expr mod	Six1-Eya2 inh	D2 PAM	D2 agonist	TRPML1 ag	TRPML1 blocker
NC(=O)c1ccc(NC(=O)COC(=O)c2ccccc2Nc2ccccc2)cc1	2.7%	0.2	-4.4	1.7	0.4	-4.9
CC(=O)Nc1ccc(NC(=S)NC(=O)c2ccc(-c3ccccc3)cc2)cc1	4.6%	-6.5	-4.5	0.2	5.2	7.1
Cc1cccc(C(=O)N(C)c2nnc(-c3ccncc3)s2)c1	5.8%	6.8	-26.2	0.3	0.4	-0.7
CN(C)c1ccc(C(CNS(=O)(=O)c2ccc(F)cc2)N2CCOCC2)cc1 (stereo not given)	-1.2%	/	/	/	1.3	-20.7
O=C(COC(=O)CNC(=O)c1sc2ccccc2c1Cl)NC1CCS(=O)(=O)C1 (stereo not given)	2.1%	6.1	3.7	-4.1	0.4	-7.9
CN(C)c1ccc(/C=N/NC(=O)c2ccc(NC(=O)c3ccccc3)cc2)cc1	0.3%	3.7	-10.0	-1.3	0.8	-4.3
Cc1cccc(Cn2c(C)c(CNC3CCCCC3)c(C(=O)O)c2C)c1	-0.7%	/	/	/	-0.8	-15.2
CCOC(=O)c1cnc(-n2nc(C)cc2C)nc1Nc1cccc(C(C)=O)c1	-0.9%	-0.4	-10.0	-0.1	0.7	-1.3
COCCCNC(=O)Cn1c(=O)n(Cc2ccc(C(=O)NCCc3ccc(OC)c(OC)c3)cc2)c(=O)c2ccccc21	-0.5%	5.6	-2.8	-1.5	-0.2	2.5
COc1ccc(Cc2c(C(C)(C)C)nc3c(C)cc(Br)cn23)c(C)c1	3.1%	-0.5	-7.8	-6.2	-0.4	-2.8
Cc1ccc(C(=O)Nc2ccc(O)cc2C(=O)O)cc1	0.1%[38.3 µM]	-9.5	-0.9	-1.4	0.5	-2.4
CCOc1cccc(/C=C/c2ccc3cccc(O)c3n2)c1O	15.3%	-7.7	-11.0	2.1	1.8	4.2
COc1ccccc1-n1cnc2cc(NS(=O)(=O)c3ccc(Br)cc3)ccc21	-0.2%	-7.1	13.3	10.1	-0.7	13.5
CCOC(=O)c1ccc(N2C(=O)c3n[nH]c(-c4ccco4)c3C2c2ccc(O)c(OC)c2)cc1 (stereo not given)	-1.7%	/	/	/	0.2	-11.1
CC1CCCCC1NC(=O)CCCCCn1c(=S)[nH]c2ccsc2c1=O (stereo not given)	0.1%	-1.7	-5.9	1.0	3.5	-7.2
CC(C)CCOc1ccc(-c2c(=O)n(OCc3ccc([N+](=O)[O-])cc3)c3ccccc3[n+]2[O-])cc1	?	-1.1	-4.9	0.7	-0.1	-5.8
CC1(c2ccccc2)NC(=O)N(CC(=O)Nc2ccc(C(N)=O)cc2)C1=O (stereo not given)	1.2%	1.0	-3.6	-2.9	0.0	-13.4
COCCNC(=O)NC12CC3CC(CC(C3)C1)C2	-1.0%	-0.5	-7.3	-7.2	-0.2	-3.6
O=C(COc1ccc([N+](=O)[O-])cc1)NCc1ccccc1	-0.1%	2.0	-3.7	-1.9	-0.1	-1.2
O=C1C2C3C=CC(C4CC34)C2C(=O)N1/N=C/c1c[nH]c2ccccc12 (stereo not given)	-1.9%	9.1	-1.5	-0.3	-0.3	6.9
CC(C)c1ccc(NC(=O)C2CC3CCC2C3)cc1 (stereo not given)	0.2%	13.5	-2.4	-0.3	0.4	-6.9
Cc1ccc(C)c(S(=O)(=O)N2CCN(C(=O)CSC(=S)N3CCCC3)CC2)c1	2.6%	-7.0	-0.3	0.1	-0.8	0.0
Cc1onc(-c2ccccc2)c1C(=O)NCCc1ccncc1	1.2%	-7.2	-7.9	0.3	0.9	1.7
Cc1cccc(NC(=O)c2ccc(C(=O)c3ccccc3)cc2)n1	5.6%	1.1	?	1.3	-0.2	7.3
Cc1ccc(/C=N/NC(=O)Cc2c[nH]c3ccccc23)c(C)c1	2.7%	-2.8	-4.1	3.5	-0.5	-1.4
Cc1ccc(NC(=O)CSCc2cc(=O)n3cc(C)sc3n2)c(C)c1	0.3%	4.9	0.2	3.9	-0.3	1.9
Cc1cc(C(=O)COC(=O)CNC(=O)c2ccccc2)c(C)n1CC1CCCO1 (stereo not given)	2.2%	-1.0	1.0	-3.0	0.8	-9.1
CCC(=O)Nc1nn(C)c2nc3c(C)cccc3cc12	-1.0%	14.9	-4.5	-2.1	1.0	27.8
COc1ccc2nc(-n3c(C)ccc3C)sc2c1	/	-5.8	-23.1	-2.8	0.3	7.1
CC(=O)N/C(=N/c1nc(C)cc(C)n1)Nc1ccc(F)cc1F	0.6%	0.4	-3.9	0.1	-1.7	4.8
CC(=O)N1CCc2cc(Br)cc(S(=O)(=O)N3CCN(c4cc(C)ccc4C)CC3)c21	-0.6%	/	/	/	-0.1	9.3
Cc1ccccc1NC(=O)CC1C(=O)Nc2ccccc2N1CC(=O)N(C)C1CCS(=O)(=O)C1 (stereo not given)	9.0%	1.2	-6.2	2.9	0.4	34.4
COc1ccc(-c2cc3nc(C)c(CCC(=O)N4CCN(c5cccc(Cl)c5)CC4)c(C)n3n2)c(OC)c1	2.5%	/	/	/	-1.0	26.7
C#CCOc1ccc(/C=C2\SC(=S)N(Cc3cccnc3)C2=O)cc1	11.2%	-9.2	-15.3	-1.5	0.2	73.0
CCOC(=O)CSc1ncc(OC)c(=O)[nH]1	-1.0%	4.1	-14.6	1.4	3.7	1.8
C#CCOc1ccc(C2C3=C(COC3=O)Nc3cc4c(cc32)OCO4)cc1OC (stereo not given)	1.4%	-4.5	0.3	0.0	0.2	22.1
CCN(CC)CCn1c(=S)[nH]c2cc3c(cc2c1=O)OCO3	-1.7%	-1.8	-19.9	0.0	0.0	-16.4
Cc1sc2ncnc(SCc3ccc(C(=O)O)cc3)c2c1C	-0.6%	-6.9	-4.4	-4.0	0.2	-4.0
CC1(C)Cc2c(c(N3CCOCC3)nc3snc(N)c23)CO1	-1.7%	6.3	-6.0	-6.8	-0.3	-4.6
CCOC(=O)CCn1cc(F)c(=O)[nH]c1=O	-0.8%	19.0	6.3	-6.0	-0.6	-14.4
O=C(C1=C[C@@H](c2csc3ccccc23)C[C@@H](OCc2ccc(CO)cc2)O1)N1CCN(Cc2ccccc2)CC1	1.3%	-15.8	-6.8	4.9	0.5	-5.9
CCOc1ccc(NC(=S)NC(=O)/C=C/c2ccc(OC)cc2)c([N+](=O)[O-])c1	1.6%	1.2	7.9	-3.5	0.4	10.1
CCS(=O)(=O)c1nc(S(=O)(=O)c2ccc(Cl)cc2)c(N2CCN(C)CC2)s1	-1.1%	1.2	-33.8	-2.1	-0.1	-2.0
CCOC12CC(C)(C)CC(C)(CC3=C1C(=O)CC(C)(C)C3)C2 (stereo not given)	2.6%	11.3	-10.9	-2.3	0.7	35.7
Cc1ccc(-c2c(C(=O)O)c3ccccc3[nH]c2=O)cc1	0.0%	5.9	-9.1	-0.7	0.8	17.4
CC(C)(C)c1ccc(S(=O)(=O)NNC(=O)c2cc3ccccc3[nH]2)cc1	-0.9%	-11.6	-10.1	2.9	0.6	-2.1
Cc1oc2ccccc2c1-c1cn2c(n1)SCC2	3.3%	-2.7	-3.5	-2.4	-0.5	19.4
COc1cc(C(=O)NNC(=O)c2ccc3c(c2)OCCO3)cc(OC)c1OC	1.3%	1.1	-2.1	1.3	-0.3	5.5
Cc1nn(-c2ccccc2)c(C)c1NC(=O)COC(=O)c1ccccc1OC(F)F	1.0%	2.5	-14.8	0.0	0.1	-11.2
Cc1cc(C)cc(C(=O)NCC(=O)OCC(=O)NCc2ccco2)c1	-0.3%	-1.7	?	10.9	2.7	18.1
(further entries)
SMILES	PINK1 expr mod	Six1-Eya2 inh	D2 PAM	D2 agonist	TRPML1 ag	TRPML1 blocker
O=S1(=O)CCOC[C@H](Cc2ccccc2)N1Cc1cccc(Cl)c1	0.8%	1.7	-8.8	-2.2	-0.7	9.1
Cc1cc(NC(=O)c2ccc3c(c2)C(=O)N(c2cccc(C)c2C)C3=O)no1	2.0%	3.3	-16.4	-2.3	1.3	11.7
CCOc1cc(/C=N/n2cnnc2)cc(Br)c1O	0.7%	-9.6	-4.1	0.5	0.8	-5.1
Cc1ccc(N(C(=O)Nc2ccccc2)C2=NCC(C)S2)cc1 (stereo not given)	9.0%[38.3 µM]	3.5	2.5	-0.1	-0.6	1.8
Cc1ccccc1NC(=O)CSc1[nH]c(=O)cc(C)c1C#N	2.4%	0.2	-0.5	0.1	0.0	-29.0
Cc1cc(=O)[nH]c(SCC(=O)NCC2CCCCC2)c1C#N	-0.4%	7.3	-3.1	-0.5	0.1	1.6
COCCNc1nc(NCCOc2ccccc2Cl)c2sccc2n1	4.7%	-3.8	-16.4	4.7	-1.0	/
COc1ccc(S(=O)(=O)N2CCOCC2)cc1NC(=O)CCCSc1ccccc1	0.9%	9.1	4.2	-0.1	-1.1	-15.1
O=c1c2c(n3nnnc3n1-c1ccccc1)-c1ccccc1CC21CCCC1	2.5%	1.8	2.9	-3.1	-0.4	45.1
CCOc1cc(OCC)cc(C(=O)N2CCC[C@H]2C(=O)N2CCC[C@H]2C(=O)NCc2ccccn2)c1	0.4%	1.3	/	/	0.0	/

Next part (two carried over from the part before).
SMILES	PINK1 expr mod	Six1-Eya2 inh	D2 PAM	D2 agonist	TRPML1 ag	TRPML1 blocker
O=c1c2c(n3nnnc3n1-c1ccccc1)-c1ccccc1CC21CCCC1	2.5%	1.8	2.9	-3.1	-0.4	45.1
CCOc1cc(OCC)cc(C(=O)N2CCC[C@H]2C(=O)N2CCC[C@H]2C(=O)NCc2ccccn2)c1	0.4%	1.3	/	/	0.0	/
CCN(Cc1ccccc1)C(=O)Cc1ccc(OC)c(S(=O)(=O)N2CCOCC2)c1	-0.3%	7.9	0.8	-6.9	-0.3	13.2
CNC(=O)Nc1ccc2nc(C)oc2c1	4.0%	5.3	-14.6	-4.5	-0.5	12.8
O=C(Nc1cccc(Br)c1)/C(=C\c1cccnc1)NC(=O)c1ccco1	-1.9%	5.9	-6.5	-2.3	-0.2	6.4
COc1ccccc1N=NNc1ccc(S(=O)(=O)NC(C)=O)cc1	1.0%	-15.7	6.4	12.3	-0.3	/
O=c1c2c(ncn2C2CCCC2)n(Cc2ccccc2)c(=O)n1CCOc1ccccc1	6.0%	-5.9	-3.6	-3.3	-0.1	-6.8
CC1CN(C(=O)c2ccc(Oc3ccccc3)cc2)CC(C)O1 (stereo not given)	0.2%	1.9	-0.4	-0.4	-0.3	-2.1
Cc1ccc(C(=O)n2nc(-c3ccco3)nc2NCc2cccs2)cc1	0.8%	/	/	/	-0.7	9.1
C=CCNC(=S)N/N=C/c1cn(-c2ccccc2)nc1-c1ccc(OC)cc1	7.7%	-6.3	11.8	2.2	2.7	18.2
CCOC(=O)c1c(NC(=O)CSc2ncn[nH]2)sc(C)c1C	-0.6%	-19.0	6.5	1.6	-0.6	-8.6

High-throughput results from PubChem BioAssay.
